PrP 5UTR inh = inhibition of PrP 5' UTR reporter expression; 0.35% of 340,000 active; inhibition, % (no concentration beside the values); cell-based PrP 5' UTR mRNA reporter, plate reader;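 active means every replicate at 50% or more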;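 further: 0 = median of the neutral control wells; tested in H4 reporter cells; numbers are from one replicate; inactives centre near -14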
BJeLR lethal = kills HRASV12-expressing BJeLR cells; 0.17% of 300,000 active; BJeLR (HRASV12) viability, CellTiter-Glo ATP luminescence, 48 h; reference of the scale not given here; inhibition, % (concentration not given with the values); AID 1554;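 active means replicate mean above 50%; inconclusive means above 50% but judged a plate artefact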;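 further: 50 nL library stock added to about 25 µL; numbers are from one replicate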
ugtP null kill = compounds lethal to S. aureus RN4220 ugtP deletion mutant; growth inhibition, % (test concentration not listed); OD600 growth, 16 h; some inactives read as strong as hits; 0.54% of 330,000 active;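 active means z-score under -3 and OD600 up to 0.15 on both plates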;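 further: plate controls were untreated wells for no effect and antibiotic for full effect; wells of about 80 µL received 100 nL stock; the first replicate is given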
Autofluor counter = counter-screen for toxin protease inhibitors: compound fluorescence | compound autofluorescence counterscreen, microsphere flow cytometry; stronger effect = higher value | fluorescence intensity (no concentration beside the values) | 3.1% of 360,000 active | AID 624483;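 active means at least 3 SD above the mean of all compounds, about 16000 in these data; inconclusive means too few beads counted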;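 further: 100 nL of 1 mM stock went into each well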
Sa RN4220 lethal = S. aureus RN4220 growth inhibition; 0.33% of 330,000 active; AID 1259311; OD600, 16 h; inhibition, % (concentration not given with the values);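 active means z-score of -3 or lower and OD600 up to 0.18 on both plates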;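 further: plate controls were untreated cells for no effect and reference antibiotic for full effect; stock transfer was 100 nL into about 80 µL; one replicate is shown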
Mtb hypoxia inh = inhibitors of hypoxia-regulated fluorescent reporter in Mycobacterium tuberculosis | M. tuberculosis hypoxia-regulated fluorescent reporter, fluorescence | 0.1% of 300,000 active | fluorescence inhibition, % (concentration not given with the values);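 active means 35 to 45% if threefold the growth effect, above 45% if 1.5-fold the growth effect; inactive means the rest, general growth blockers included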;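 further: wells of about 50 µL received 100 nL stock; 0% = vehicle wells and 100% = reference inhibitor wells; whole bacteria with a GFP reporter of the hypoxia response; strong numbers were not always called active; many hits fall short of the cut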
Mtb hypoxia inh growth = also measured in Mtb hypoxia inh; calls as there; growth inhibition, %; measured here: M. tuberculosis growth (absorbance);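 0% = vehicle and 100% = reference antibiotic; read after six days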
Numbers without * were called inactive; ? = inconclusive; . = not tested or not shown; & = joins results of further samples.

SMILES	PrP 5UTR inh	BJeLR lethal	ugtP null kill	Autofluor counter	Sa RN4220 lethal	Mtb hypoxia inh	Mtb hypoxia inh growth
CCCCCC(=O)NC(NC(=S)Nc1ccc(S(N)(=O)=O)cc1)C(Cl)(Cl)Cl (centres undefined)	-12.1	1.6	5.6	3615	5.9	8.4	6.1
CCCOc1ccc(C2C(=C(O)c3c(C)[nH]c(C(=O)OC)c3C)C(=O)C(=O)N2CCN(C)C)cc1 (centres undefined)	.	.	-4.6	.	2.1	4.3	6.3
COC(=O)c1c(C)oc(C)c1S(=O)(=O)N(C)C1CCCCC1	.	-16.0	0.0	5999	3.0	14.4	0.7
COCCN(C(=O)COC(=O)C1CC1)c1c(N)n(Cc2ccccc2)c(=O)[nH]c1=O	-0.8	1.7	5.8	5475	5.0	5.1	2.0
CCN(CC)S(=O)(=O)c1ccc(-c2nnc(SCC(=O)Nc3nnc(C)s3)n2CC)cc1	15.0	0.1	-2.0	3076	0.3	-2.5	-8.7
Cc1ccc(OC(C)c2nnc(N)s2)cc1Cl (centres undefined)	0.6	.	3.3	2825	2.7	.	.
CCOC(=O)c1ccccc1NC(=O)C1=COCCO1	3.7	-5.5	2.4	4693	5.6	0.4	1.0
O=C(COC(=O)c1ccc(O)cc1)Nc1ncc(Cl)cc1Cl	3.8	10.8	5.8	4077	-8.0	-4.3	0.2
O=c1c2ccccc2ncn1-c1ccc(Cl)c(Cl)c1	-46.3	3.0	-10.9	11349	10.8	4.4	4.6
COc1ccc([N+](=O)[O-])cc1NC(=O)C(C)Sc1nc(-c2ccccc2)cs1 (centres undefined)	-25.5	1.8	-21.7	2501	-1.9	8.5	8.8
CC1=Nc2ccc(C)cc2/C1=C/c1c(N)n2oc(C)cc2nc1=O	-12.7&-7.5	-0.5&0.4	-10.4&-4.9	3583&2295	1.7&6.6	-0.7&7.2	-1.0&8.2
Cc1cnn(C2CCN(C)CC2)c1N	-1.6	-2.5	1.9	16760*	5.0	4.4	14.5
COC(=O)c1ccc(C2Nc3ccc(/C(C)=N/NC(=O)C(OC)c4ccccc4)cc3C3C=CCC32)cc1 (centres undefined)	-9.5	-4.8	.	7947	.	.	.
O=C1c2ccccc2C(=O)C12Cc1ccccc1N1CCN(c3ccccc3)CC12 (centres undefined)	-9.0	2.3	11.6	4508	4.3	9.5	4.4
CCNC(=O)c1cc(S(=O)(=O)N(C)C)c(Cl)cc1Cl	-16.3	-1.6	0.5	3727	1.4	7.5	3.6
Cn1c(O)c(C=NCCN2CCNCC2)c(=O)[nH]c1=O	.	8.1	2.8	6406	1.6	-4.6	-4.1
COc1ccc(CC(=O)NN=C(C)CC(=O)Nc2cccc(F)c2)cc1	.	.	-0.3	.	6.3	-2.6	-4.8
CCc1noc(C)c1C(=O)OCC(=O)c1ccc(OC)c(OC)c1	-21.8	.	11.5	3159	6.3	0.8	0.5
COc1ccc(C(=O)OCC(=O)NCc2cccs2)c(OC)c1OC	-15.7	.	2.4	3700	1.1	11.8	27.4
CCOC(=O)CC(=O)c1[nH]c(C)c(C(=O)OCC)c1C	-35.0	-2.8	2.6	6174	1.2	7.9	5.2
Cn1cc(C(=O)Nc2ccc3c(c2)CCC3)cn1	-38.0	-10.3	1.6	2635	5.3	2.2	5.8
CCOc1ccc(NC(=O)C(Cc2ccccc2)N2C(=O)c3cccc4cccc(c34)C2=O)cc1 (centres undefined)	-20.6	12.4	2.5	4770	14.4	2.5	0.0
CCC(=O)N1CCc2cc(S(=O)(=O)Nc3ccc4c(c3)OCCO4)ccc21	10.4	5.8	3.9	4533	0.0	.	.
c1ccc2cc3[nH]c(CN4CCOCC4)nc3cc2c1	-10.1	5.9	-11.7	2896	-1.3	5.0	7.1
COc1ccc(C(C)=O)cc1COC(=O)CCCN1C(=O)c2ccccc2C1=O	-21.6	-8.5	8.3	3751	5.7	14.2	5.9

Next section:
SMILES	PrP 5UTR inh	BJeLR lethal	ugtP null kill	Autofluor counter	Sa RN4220 lethal	Mtb hypoxia inh	Mtb hypoxia inh growth
C=CCOc1ccccc1CN1CCCC(CCC(=O)N(C)CCc2ccccn2)C1 (centres undefined)	-21.7	1.9	0.9	4690	1.8	1.7	-1.9
O=C(NC1CCCCCC1)C1CCN(S(=O)(=O)c2ccccc2)CC1	-17.3	-7.8	4.3	9453	-5.4	-2.9	-8.6
CC(=NNS(=O)(=O)c1ccc(C)cc1)c1ccc(Br)s1	.	.	45.0	.	6.8	4.5	4.6
NC(=O)C1CCN(/C=C2\C(=O)NC(=O)N(Cc3ccco3)C2=O)CC1	-3.8	-13.3	6.8	4606	4.0	6.8	6.6
O=C(Cc1ccc(Cl)cc1Cl)NCC1(N2CCOCC2)CCCCC1	-11.0	3.3	-4.0	4229	-0.7	-0.8	15.5
CC(C)(C)c1ccc(C(=O)NCC2CCCN2S(=O)(=O)c2ccccc2)cc1 (centres undefined)	11.6	-3.5	0.1	?	-5.3	1.4	8.3
O=C(O)c1cccc(-n2nnnc2SCc2ccccn2)c1	13.9	-1.9	0.4	4293	0.4	-4.7	-2.0
C/C(=N\NC(=O)c1cccs1)c1ccc(C(=O)O)s1	-8.3	-4.1	.	6806	.	.	.
COc1cccc(C(=O)C2CCCN(Cc3cccc(C)n3)C2)c1 (centres undefined)	-17.1	-7.1	-1.2	3032	-4.0	-6.2	11.5
COc1cccc(-c2sc3ccc(OC)cc3c2-c2ccc(C(N)=O)cc2)c1	-20.8	.	7.1	2997	2.3	8.3	3.8
COC(=O)C1=CN(CC2CCCO2)C=C(C(=O)OC)C1c1ccsc1 (centres undefined)	-8.0	-8.5	-1.8	22638*	1.3	2.9	2.5
Cc1ccc2nc(NC(=O)c3cc(-c4ccco4)nc4ccccc34)sc2c1	-10.1	-8.3	11.8	2224	11.9	9.6	0.6
COC(=O)c1ccc(C(=O)OC)c(NC(=O)Oc2ccccc2)c1	-63.5	4.2	2.4	2373	7.1	.	.
CN(C)C=Nc1c(C(=O)NCc2ccccc2)nnn1Cc1ccccc1	.	.	-8.0	.	8.1	9.7	8.1
CCOc1cccc(C(=O)N2CCCN(C)CC2)c1	-2.5	2.9	3.4	4583	2.0	10.7	3.0
Clc1ccc(Cl)c(-c2nn3c(COc4ccccc4)nnc3s2)c1	-23.6	3.4	-8.3	10331	12.5	-6.4	1.7
Cc1ccccc1Cc1c(C)nc2c(C(=O)NCc3ccco3)cnn2c1C	2.9	1.4	-14.6	17104*	-6.7	3.1	1.0
COC(=O)c1ccc(Cn2nc(-c3ccccc3)ccc2=O)cc1	-8.2	1.8	-2.1	3904	3.7	-3.9	2.3
CCOC(=O)CNC(=O)C1c2ccccc2C(=O)N(c2ccc(OC)cc2)C1c1ccc(OC)cc1 (centres undefined)	-11.8	-10.3	17.2	3154	-1.8	21.8	3.6
Cc1ccc(C)c(NC(=O)Cn2ccn(-c3ccc4c(c3)OCO4)c(=O)c2=O)c1	0.2	-0.1	4.9	4206	2.1	1.4	0.0
Cc1cc2c3c(c1)C1(SCC(=O)N1c1ccc(F)cc1)C(=O)N3C(C)(C)CC2C (centres undefined)	2.9	-4.8	-18.4	18092*	-0.3	3.4	0.5
O=C(COC(=O)C(Cc1ccccc1)NC(=O)c1cccs1)NCc1ccccc1 (centres undefined)	0.5	.	0.1	?	2.3	-2.1	11.4
O=S(=O)(c1ccc(F)cc1)N1CCN(CCc2ccccc2)CC1	-26.2	-5.2	11.7	3424	-3.8	9.4	17.6
COc1ccc(OC)c(-n2cnc3cc(C(=O)O)ccc32)c1	-12.1	-6.2	0.0	4821	-1.1	.	.
COc1ccc(O)c(C(=O)c2cnc3c(c2)c(C)nn3CCO)c1	4.2	1.2	5.7	4552	4.4	7.7	-2.8

Record cards, from the list above. Order of values: PrP 5UTR inh	BJeLR lethal	ugtP null kill	Autofluor counter	Sa RN4220 lethal	Mtb hypoxia inh	Mtb hypoxia inh growth
O=C(Cc1ccc(Cl)cc1Cl)NCC1(N2CCOCC2)CCCCC1 is entered as -11.0	3.3	-4.0	4229	-0.7	-0.8	15.5
CCOc1cccc(C(=O)N2CCCN(C)CC2)c1 is entered as -2.5	2.9	3.4	4583	2.0	10.7	3.0

Next entries follow.
SMILES	PrP 5UTR inh	BJeLR lethal	ugtP null kill	Autofluor counter	Sa RN4220 lethal	Mtb hypoxia inh	Mtb hypoxia inh growth
Clc1cccc(Oc2cnns2)c1Cl	-16.5	-4.8	0.4	2664	-0.9	.	.
O=C(N1CCOCC1)n1cnc2ccccc21	3.2	-5.1	-1.8	5975	-1.0	3.4	-6.7
COc1cc(C)c(S(=O)(=O)NOCc2ccc([N+](=O)[O-])cc2)c(C)c1C	15.5	4.2	-2.6	.	7.6	12.8	1.8
COCCNC(=O)/C(C#N)=C/c1c(N2CCCCCC2)nc2ccccn2c1=O	6.1	1.1	2.9	3600	2.3	-0.1	15.2
CCCCCC(=O)C(=O)c1ccc(O)cc1O	5.1	9.9	2.4	3864	4.0	12.9	11.1
CCN(CC)CCCN(Cc1cc2cc3c(cc2[nH]c1=O)OCO3)C(=S)Nc1ccc(OC)cc1	-15.4	6.4	-2.1	5564	3.1	7.1	12.3
CC(=O)Nc1ccc(NS(=O)(=O)c2ccc(Cl)c(C(=O)O)c2)cc1	-4.3	2.2	11.8	8113	6.5	8.5	9.0
COc1ccc(C=NNC(=O)C(=O)N2CCCC2)cc1	.	.	9.2	.	2.2	-2.6	14.3
COc1cc(C(=O)Nc2cc3c(cc2N2CCCCC2)n(C)c(=O)n3C)cc(OC)c1OC	-15.9	6.1	-16.0	.	0.6	-8.9	7.9
COc1cccc2sc(N(C)c3ccccc3)nc12	-80.6	-5.0	8.1	6845	8.5	17.2	10.1
O=S(=O)(c1ccc2ccccc2c1)N1CCN(C2Cc3ccccc3C2)CC1	-8.2	6.4	-0.2	2310	1.9	4.5	20.9
Cc1ccc(Nc2ncnc3c2cnn3C)cc1	-10.1	1.6	16.6	2094	19.0	4.5	-5.6
Cc1ccc2[nH]c(=O)c(CN(CCc3ccccc3)C(=O)N3CCOCC3)cc2c1	-10.6	1.2	6.6	3280	7.7	-6.4	-4.0
CCCCn1c(N)c(N(CCOC)C(=O)CSc2n[nH]c(-c3ccc(OC)cc3)n2)c(=O)[nH]c1=O	-13.4	4.3	.	3949	.	.	.
COc1ccc(OC)c(NC(=O)CCC(=O)Nc2nnc(C(C)C)s2)c1	-12.3	6.5	-7.1	5585	-0.3	-2.5	-3.7
O=S(=O)(NCCO)c1ccc2c(c1)Cc1cc(S(=O)(=O)NCCO)ccc1-2	2.1	7.6	3.7	4037	3.3	17.1	4.7
O=c1[nH]c(=O)n(-c2cccc3ccccc23)c(O)c1C=NN1CCCCC1c1cccnc1 (centres undefined)	.	.	-4.3	.	2.2	4.0	4.7
COc1ccc(Cc2nc(-c3ccc(Br)cc3)no2)cc1	-14.9	.	74.8	4231	3.5	5.0	-1.0
COc1cc(C(C2=C(O)CC(C)(C)CC2=O)C2C(=O)CC(C)(C)CC2=O)cc(OC)c1OC (centres undefined)	-21.5	-0.6	4.4	4265	-0.1	6.5	16.9
COc1ccc(S(=O)(=O)n2c([N+](=O)[O-])cnc2C)c(C)c1C	-23.0	-5.2	9.8	3726	5.5	0.1	8.5
O=C(CSc1nncn1-c1ccccc1)NC1CCCc2ccccc21 (centres undefined)	-7.7	4.6	-0.9	2573	4.4	6.1	7.4
CN(C(=O)c1cccc(NC(=O)Cc2cccc([N+](=O)[O-])c2)c1)C1CCCC1	-0.1	.	-1.5	3764	1.7	9.9	13.9
O=C(O)CCC(=O)NCc1ccc(F)cc1	-19.9	8.8	2.1	10754	3.5	8.4	4.8
CCCN(CC(=O)Nc1ccccc1C)C(=O)CCCc1c[nH]c2ccccc12	-26.2	.	-0.8	7681	4.0	7.8	-1.7
Cc1ccc(-c2nc(C(Cl)Cl)c3ccccc3n2)cc1	-20.2	-1.3	3.1	3575	70.4	20.9	14.5
CCN(CC)S(=O)(=O)c1cccc(C(=O)NC(Cc2c[nH]c3ccccc23)c2nnc3n2CCCCC3)c1 (centres undefined)	-36.6	-6.9	12.4	15690	10.0	7.6	7.7
O=S(=O)([N-]c1nc2ccccc2nc1-[n+]1ccc(Cc2ccccc2)cc1)c1ccc(Br)s1	-17.5	-3.7	95.2*	.	94.6*	10.1	15.4
